RecA splice inh = inhibitors of M. tuberculosis RecA intein splicing; P9WHJ3; cell-free RecA intein splicing, fluorescence; inhibition, %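 (about 9 µM by stock and volumes)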; 0.75% of 290,000 active; AID 2221; in the data active = inhibition above about 30%;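 also: 0% = vehicle wells and 100% = reference inhibitor control wells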
Target sequence (P9WHJ3 whole entry, looked up, canonical isoform): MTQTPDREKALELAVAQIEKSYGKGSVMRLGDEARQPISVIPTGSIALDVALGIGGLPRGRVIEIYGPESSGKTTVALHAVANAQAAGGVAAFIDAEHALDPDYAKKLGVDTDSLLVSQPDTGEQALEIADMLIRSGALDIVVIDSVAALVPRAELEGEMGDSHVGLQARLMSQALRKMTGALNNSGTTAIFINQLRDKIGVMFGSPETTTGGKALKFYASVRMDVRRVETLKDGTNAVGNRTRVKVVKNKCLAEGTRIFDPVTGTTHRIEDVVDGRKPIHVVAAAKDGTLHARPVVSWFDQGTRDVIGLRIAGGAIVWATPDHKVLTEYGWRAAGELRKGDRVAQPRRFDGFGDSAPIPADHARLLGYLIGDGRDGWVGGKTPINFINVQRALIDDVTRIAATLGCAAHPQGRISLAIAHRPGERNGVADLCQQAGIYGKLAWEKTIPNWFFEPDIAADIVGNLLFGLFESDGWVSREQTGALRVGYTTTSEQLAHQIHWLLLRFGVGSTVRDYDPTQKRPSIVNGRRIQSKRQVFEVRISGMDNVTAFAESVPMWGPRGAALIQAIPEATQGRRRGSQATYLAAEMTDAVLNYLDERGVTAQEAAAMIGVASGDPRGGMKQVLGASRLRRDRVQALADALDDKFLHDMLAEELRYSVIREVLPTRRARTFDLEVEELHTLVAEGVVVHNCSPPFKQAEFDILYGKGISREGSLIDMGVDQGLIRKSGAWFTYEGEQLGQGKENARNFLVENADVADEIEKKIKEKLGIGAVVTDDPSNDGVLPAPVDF
Mtb betalactam = beta-lactam sensitization of Mtb H37Rv | inhibition, % at 25 µM | M. tuberculosis H37Rv growth with meropenem, percent inhibition; hits of this screen are not shown here | 0.27% of 330,000 active;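 active = about 74% or more and at least 40 points above the plate without the antibiotic, then above 30% in a dose series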;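 also: growth measured after seven days incubation then overnight dye step; 0% = bacteria only wells and 100% = bacteria with antibiotic; twin plates without the antibiotic show which effects depend on it; some results filed as inactive read as strong as hits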
Arbovirus anti = arbovirus infection inhibition; 0.37% of 200,000 active; arbovirus infection cell-based antiviral screen; inhibition, % at 10 µM; AID 1251;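 active = inhibition from about 30%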;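 also: bluetongue infection of BSR cells; cell survival read as ATP light after 72 h; 0% = infected wells without compound and 100% = uninfected wells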
YopH PTP inh = inhibitors of Yersinia enterocolitica YopH tyrosine phosphatase | AID 898 | 0.16% of 140,000 active | inhibition, %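 (about 10 µM by stock and volumes)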 | fluorescence Ex485/Em525;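 active = inhibition of 50% or more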;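 also: controls were vehicle for no effect and minimum signal wells for full effect; inactives centre near -20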
Mtb H37Rv = M. tuberculosis H37Rv growth inhibitors, H37Rv strain (AID 1626). one-dose inhibition, % at 10 µM; IC50 in µM for titrated hits. M. tuberculosis H37Rv growth inhibition; higher % means a stronger effect. 0.95% of 220,000 active;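 active = confirmed in a dose series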;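 also: bacteria incubated seven days before Alamar blue readout; 0% = bacteria only wells and 100% = bacteria with antibiotic wells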
Arbovirus anti repeat = second read-out of Arbovirus anti, no call of its own (marks repeat the call); inhibition, %; measured here: 10K subset replicate screen; many hits read low in the repeat;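 first of two repeat runs on a subset; 0% = infected and 100% = uninfected wells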
Starred values were filed as active, the others as inactive; / = no result given. Some of the compounds tested; the hit share may differ from the screen's.

SMILES	RecA splice inh	Mtb betalactam	Arbovirus anti	YopH PTP inh	Mtb H37Rv	others
CC1CCC(NC(=O)CNC(=O)c2ccc3ccccc3c2)CC1 (stereo not drawn)	4.1	-11	/	/	/
O=C(CCCC(=O)OCC(Cl)=C(Cl)Cl)Nc1ccc(F)cc1	2.0	6	9	-15	5%
CC(=O)N1c2ccc(S(=O)(=O)N3CCCC(C(=O)Nc4cccc(Cl)c4)C3)cc2CC1C (stereo not drawn)	2.1	11	/	/	/
O=C(Cc1ccccc1)c1ccccc1C(=O)N1CCCCC1	0.1	-4	/	/	/
N#Cc1ccc(C(=O)OCC(=O)NC2CCCC2)cc1	4.1	-2	/	/	/
Cc1cs/c(=N\N=C\c2cccc([N+](=O)[O-])c2)n1Cc1ccco1	-7.6	-3	-6	-28	3%
CC(C)n1c(O)c(N=NC(=O)Cc2csc(N3CCOCC3)n2)c2ccccc21	5.5	-2	-8	/	5%
N#C[C@H]1[C@H](c2ccccc2)[C@](C#N)(C(=O)c2ccccc2)[C@@H]2C=Cc3ccccc3N21	53*	/	-31	-27	/
O=C(CCN1C(=O)S/C(=C\c2ccc(F)cc2)C1=O)Nc1ccc(C(=O)O)c(O)c1	8.2	94	/	/	/
c1ccc(CCCN2CCOCC2)cc1	-0.5	0	/	/	/
COc1cccc(Cn2cccc(NC(=O)Nc3ccccc3C)c2=O)c1	-1.2	1	-1	/	1%
Cc1ccc(NC(=S)C2=C(O)c3ccccc3N(C)S2(=O)=O)cc1	0.8	26	8	-46	0%
O=C(CNS(=O)(=O)N1CCOCC1)N/N=C/c1cccnc1	-2.8	-2	0	/	-9%
O=C(NCC(=O)N(CC1CCCO1)C(C(=O)NC1CCCCC1)c1ccc(F)cc1)c1ccco1 (stereo not drawn)	1.2	-1	4	-5	0%
COc1ccc(N2CC(C(=O)N[C@@H](C)C(=O)N[C@H](CO)c3ccccc3)CC2=O)cc1 (stereo partly drawn)	5.3	-2	/	/	/
COc1cc(/C=C(\C#N)c2nc3ccccc3n2C)cc(OC)c1O	-5.4	9	5	/	-4%
O=S(NCc1ccco1)C12CC3CC(CC(C3)C1)C2 (stereo not drawn)	-1.7	8	7	-10	0%
Cc1ccnc(NC(=O)CCc2c[nH]c3ccccc23)c1	2.9	98	/	/	/
CCc1ccc(NS(=O)(=O)c2cc(OC)ccc2OC)cc1	-4.2	7	-9	-30	-4%	Arbovirus anti repeat=-7
O=C(CNC(=S)N(Cc1ccccc1)Cc1cccnc1)N1CCOCC1	-6.7	2	14	/	-9%

Part of the list above in order of molar mass, falling.
SMILES	RecA splice inh	Mtb betalactam	Arbovirus anti	YopH PTP inh	Mtb H37Rv	others
COc1ccc(N2CC(C(=O)N[C@@H](C)C(=O)N[C@H](CO)c3ccccc3)CC2=O)cc1 (stereo partly drawn)	5.3	-2	/	/	/
O=C(CCCC(=O)OCC(Cl)=C(Cl)Cl)Nc1ccc(F)cc1	2.0	6	9	-15	5%
COc1cccc(Cn2cccc(NC(=O)Nc3ccccc3C)c2=O)c1	-1.2	1	-1	/	1%
O=C(CNS(=O)(=O)N1CCOCC1)N/N=C/c1cccnc1	-2.8	-2	0	/	-9%
O=C(Cc1ccccc1)c1ccccc1C(=O)N1CCCCC1	0.1	-4	/	/	/
N#Cc1ccc(C(=O)OCC(=O)NC2CCCC2)cc1	4.1	-2	/	/	/

The listing continues:
SMILES	RecA splice inh	Mtb betalactam	Arbovirus anti	YopH PTP inh	Mtb H37Rv	others
N#CCCn1cc(/C=N/NC(N)=S)c(-c2ccc(-c3ccccc3)cc2)n1	6.7	56	15	/	-5%
CC(C)(C)CC(=O)NCCCN1CCOCC1	-0.4	-5	4	/	6%
COc1ccc(C(=O)NCCCCCC(=O)O)cc1OC	0.3	-1	3	0	1%
Cc1ccc(C2C(C#N)=C(N)Oc3n[nH]c(-c4ccccc4)c32)o1 (stereo not drawn)	88*	5	-3	-9	-8%
Cc1nn(-c2ccccc2)c2[nH]c(=O)c(CNCCN3CCOCC3)cc12	1.0	-7	6	-36	3%
O=C(COC(=O)Cc1ccsc1)NCc1ccccc1	-0.4	-2	4	-24	-7%
O=C(Cn1cnc2ccccc21)N/N=C/c1ccccc1	0.1	2	14	/	-6%
S=c1[nH]ncn1/N=C/c1ccccn1	-0.4	-11	0	-7	-4%
Cc1cccc(C)c1NC(=S)NCCCN1CCCC1=O	-2.4	-7	4	-28	-3%
Cc1cccc(/N=C2/NC(=O)C(Cc3ccccc3)S2)n1 (stereo not drawn)	2.3	-6	9	/	1%
CC(=O)NS(=O)(=O)c1ccc(NC(=O)CSc2ccc(Cl)cc2)cc1	-1.5	1	1	/	0%
O=C(NCc1ccccc1)c1sc(=S)n2c1[nH]c(=O)c1ccccc12	-54	-7	2	-9	-8%
CCCNC(=O)c1ccccc1NC(=O)CSCc1ccc(OC)cc1	-1.2	5	0	-19	-4%
C=CCNc1nc(Nc2cc(Cl)ccc2OC)nc(OC)n1	-0.1	6	/	/	/
COCCn1c(SCC(=O)NCc2ccc(F)cc2)nc2ccccc21	-3.1	-8	/	/	/
CCOC(=O)c1[nH]c2c(c1C)C(=O)CC(c1ccc(F)cc1)C2 (stereo not drawn)	-1.6	2	-8	-4	0%	Arbovirus anti repeat=-9
Cc1ccc(/C=C/C(=O)OC(C)C(=O)Nc2ncc(Cl)cc2Cl)o1 (stereo not drawn)	3.6	2	9	-34	5%
COc1ccc(CCNS(=O)(=O)c2cc3c4c(c2)C(C)C(=O)N4CCC3)cc1OC (stereo not drawn)	1.8	-9	/	/	/
CC(=O)c1ccc(N2CCN(C(=O)CCC(=O)c3cccs3)CC2)cc1	-2.3	-6	7	/	-8%
O=C(CNC(=O)c1ccccc1F)NCCN1C(=O)S/C(=C\c2ccccc2Cl)C1=O	2.4	3	/	/	/
CCOc1cc(OCC)cc(C(=O)NCc2ccco2)c1	-5.1	-4	/	/	/
Cc1ccc(CNC(=O)C2CC3Cn4c(nc5ccccc54)C3N2C)o1 (stereo not drawn)	-4.1	-6	/	/	/
COc1ccc(Sc2nc(-c3ccccc3)ncc2OC)cc1	/	6	-1	/	6%
CN(Cc1cccc(F)c1)C(=O)c1ccc2c(=O)n3c(nc2c1)CCC3	-0.8	-17	/	/	/
O=c1cc(-c2ccncc2)oc2ccccc12	2.6	-2	3	-5	3%
COc1cccc(NC(=O)C(Sc2nnc(Nc3ccccc3C)s2)c2ccccc2)c1 (stereo not drawn)	14	0	-20	-12	2%
CN(CC(=O)Nc1cccc(F)c1)C(=O)CSc1ccccc1F	-0.2	-1	/	/	/
O=C1CCCN1CCCNS(=O)(=O)c1ccc(Br)cc1	-2.1	5	17	/	7%
CC1=Nc2ccccc2N=C(N)C1c1ccccc1 (stereo not drawn)	0.8	2	4	/	3%
O=C(Nc1cccc2ncccc12)c1ccc(Cl)cc1	1.4	5	/	/	/
O=C(O)C1CCC(Cn2c(SCc3cc(=O)n4ccccc4n3)nc3ccsc3c2=O)CC1 (stereo not drawn)	-1.2	3	4	/	-5%
COc1ccc(-c2csc(NC(=S)NC(=O)c3cccs3)n2)cc1OC	0.0	/	-13	/	43%
Cn1c(=O)cc(OCC(=O)NCCCN2CCN(c3cccc(Cl)c3)CC2)c2ccccc21	0.1	1	-24	-31	8%
CCc1ccc(NC(=O)C2C3/C=C\CCCCC32)cc1 (stereo not drawn)	2.2	/	-4	-31	-1%
CCOC(=O)c1c(NS(C)(=O)=O)sc2c1CCC(C)C2 (stereo not drawn)	-1.4	86	6	-22	-2%
Brc1ccc(-n2cnc(-c3ccccc3)c2)cc1	5.5	53	/	/	/
Cc1ccc(Cl)cc1NC(=O)C(=O)N1CCCCC1	0.0	3	-6	/	-1%
OC1(c2cccnc2)CC2CCC(C1)N2Cc1nnnn1Cc1ccccc1 (stereo not drawn)	-3.9	-10	1	-61	/
Cc1ccccc1-n1nc2c(c1NC(=O)c1cccs1)CS(=O)(=O)C2	-3.5	4	/	/	/
O=C(NCC(O)c1ccccc1)c1ccc(Cl)c(S(=O)(=O)N2CCCCC2)c1 (stereo not drawn)	-8.2	-22	/	/	/
CCOc1ccc(NC(=O)C2C3c4ccccc4C(c4ccccc43)C2C(=O)O)cc1 (stereo not drawn)	-2.1	5	5	/	-4%
CCN(C1=NS(=O)(=O)c2ccccc21)N(CC)S(=O)(=O)c1ccc(C)cc1	-0.4	-5	-3	/	3%
COc1ccc(C(=O)NCCN2CCOCC2)cc1[N+](=O)[O-]	-3.1	-4	/	/	/
CCOC(=O)C[n+]1c(C)ccc2c1CCC2	/	5	2	39	-1%
O=C(CCS(=O)(=O)Cc1cccc(Cl)c1)NCCc1ccccc1	-1.2	4	/	/	/
Cc1ccc(NC(=O)C(C)Sc2n[nH]c(CNc3ccccc3)n2)cc1 (stereo not drawn)	-1.2	-2	/	/	/
CC(Sc1ccccc1)C(=O)NNC(=O)c1csc(N2CCOCC2)n1 (stereo not drawn)	0.4	-5	/	/	/
CCOc1cc(/C=N/N2CCN(Cc3ccccc3)CC2)ccc1O	-6.7	-10	/	/	/
O=C(N/N=C/C(Cl)=C/c1ccccc1)c1ccco1	-6.4	-2	2	/	-4%
O=C(NCC(c1ccco1)N1CCN(c2ccccc2)CC1)C(=O)NC1CC1 (stereo not drawn)	-0.3	-4	/	/	/
O=C(CC(C(=O)NCc1ccccc1)c1nc2ccccc2c(=O)[nH]1)NCc1ccccc1 (stereo not drawn)	1.7	1	/	/	1%
CCC(=O)N1CC(C)C(=O)Nc2ccccc21 (stereo not drawn)	-1.8	1	-3	-47	-2%
O=C(CCCC(=O)NNC(=O)Nc1ccccc1)NNC(=O)Nc1ccccc1	1.3	3	1	/	6%
CCCOC(=O)c1cccc(NC(=O)c2cccnc2)c1	0.8	0	-1	-40	4%
CC(C)(C)CC(C)(C)N1CNC(=S)NC1	7.5	0	/	/	-3%
O=C(O)CN1CCc2ccccc2C1	0.4	5	-3	/	1%
CC(C)c1ccc(NC(=O)C(=O)c2cn(CC(=O)N3CCCCC3)c3ccccc23)cc1	-2.4	7	3	-27	19%
COc1cccc(NC(=O)Cc2nnc(SCC(=O)NC3CCCC3)n2C)c1	7.8	0	/	/	/
Clc1ccccc1N1CCN(Cc2ccc(Br)o2)CC1	6.0	-2	/	/	/
COCc1nnc(NC(=O)CSCc2ccccc2)s1	4.5	29	7	-26	2%

Structures shown so far that contain a tert-butyl group, in the order listed:
SMILES	RecA splice inh	Mtb betalactam	Arbovirus anti	YopH PTP inh	Mtb H37Rv	others
CC(C)(C)CC(=O)NCCCN1CCOCC1	-0.4	-5	4	/	6%
CC(C)(C)CC(C)(C)N1CNC(=S)NC1	7.5	0	/	/	-3%

Further entries follow.
SMILES	RecA splice inh	Mtb betalactam	Arbovirus anti	YopH PTP inh	Mtb H37Rv	others
Cc1cccc(NC(=O)Nc2ccc(Cl)cc2)n1	0.5	0	/	/	/
COc1ccc(CCC(C)NCc2ccc(Cl)c(Cl)c2)cc1 (stereo not drawn)	3.5	31	/	/	/
Cc1ccc(C(=O)OCC(=O)N2CCCC2)cc1	0.8	-3	/	/	/
O=C(/C=C/c1c(F)cccc1Cl)Nc1ccc(S(=O)(=O)Nc2ncccn2)cc1	-0.6	-5	/	/	/
CC12CCC(=O)N1C(C(=O)Nc1cc(C(F)(F)F)ccc1N1CCCCC1)CS2 (stereo not drawn)	-7.7	-2	/	/	/
COc1ccc(NC2CCCN(C(=O)c3cc4ncccn4n3)C2)cc1 (stereo not drawn)	-1.0	-5	/	/	/
CCn1nc(CC(=O)Nc2nnc(CC(=O)N3CCCC3)s2)c2ccccc2c1=O	1.2	-4	1	-45	-9%
CC1CCCCC1NC(=O)CSc1nc2ccccc2c(=O)n1Cc1ccco1 (stereo not drawn)	0.8	-3	/	/	/
COc1ccc(-n2c(SCC(=O)NCc3cccs3)nnc2-c2ccoc2C)cc1	1.7	6	-1	-37	/
CCC(=O)Nc1c(S(=O)(=O)c2ccccc2)c2nc3ccccc3nc2n1Cc1ccccc1	15	-5	0	-9	-4%
Cc1c(/C=N/NC(=O)COc2ccccc2[N+](=O)[O-])c2ccccc2n1C	-0.8	1	-7	-34	-1%
CC1(C#CC[N+]2(C)CCCCC2)CCC2C(O1)c1ccccc1OC2(C)C (stereo not drawn)	0.5	-3	-2	/	-10%
CCOc1ccccc1OCCCOc1ccc(C)cc1Br	0.4	12	8	-17	/
Cc1cccc(N(C(=O)Cc2cccs2)C(C(=O)NC2CCCC2)c2ccncc2)c1 (stereo not drawn)	-1.1	-9	/	/	/
CC(=O)c1ccc(NC(=O)c2cc(CC(C)C)nc3ccccc23)cc1	4.2	4	/	/	/
COc1cccc(-c2nc(S(=O)(=O)c3ccccc3)c(N3CCOCC3)o2)c1	-0.1	-6	-2	-25	-6%
COc1cc(SC)ccc1C(=O)NCCOc1c(C)cc(C)cc1C	-2.1	-3	-6	-34	-4%

Source: PubChem BioAssay (several laboratories)
